# ASM inhibitor: Inhibitors of Secretory Acid Sphingomyelinase (S-ASM): qHTS. Sphingomyelin phosphodiesterase (Homo sapiens), P17405. placental ASM, HMU-PC fluorogenic substrate, 60 min. Potency, µM (series often up to 57.5 µM), for inactives: at the top dose activity change, negative = inhibition, hits mostly inhibitors. 340,000 compounds, 0.006% hits. AID 504937, 2011; also: potency is read from the fitted curve at half-maximal effect
# Target sequence (P17405 47-631 limits assumed): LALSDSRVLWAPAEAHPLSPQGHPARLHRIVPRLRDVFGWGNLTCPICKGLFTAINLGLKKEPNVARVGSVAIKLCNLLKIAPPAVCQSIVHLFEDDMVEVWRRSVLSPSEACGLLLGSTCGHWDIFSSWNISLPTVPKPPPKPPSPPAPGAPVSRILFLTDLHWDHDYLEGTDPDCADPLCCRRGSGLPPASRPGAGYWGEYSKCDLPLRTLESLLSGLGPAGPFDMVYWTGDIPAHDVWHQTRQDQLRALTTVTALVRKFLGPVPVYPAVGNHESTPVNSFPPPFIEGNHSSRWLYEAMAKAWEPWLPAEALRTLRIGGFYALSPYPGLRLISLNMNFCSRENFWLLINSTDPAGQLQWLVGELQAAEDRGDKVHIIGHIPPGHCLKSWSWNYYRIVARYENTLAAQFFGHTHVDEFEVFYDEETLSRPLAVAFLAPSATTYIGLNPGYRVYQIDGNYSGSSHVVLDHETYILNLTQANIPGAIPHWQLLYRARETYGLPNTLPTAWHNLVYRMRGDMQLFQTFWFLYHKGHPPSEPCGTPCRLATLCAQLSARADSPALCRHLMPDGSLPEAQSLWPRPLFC
#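 Fluorescence read-out (Ex 386 nm, Em 447 nm) after stopping the reaction at pH 10. Enzyme: ASM from human placenta; substrate HMU-PC0, 9 uM final; 60 min, 37 °C. Compound preincubation 10 min, ambient temperature.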
# Tb PFK block: qHTS Assay to Find Inhibitors of T. brucei phosphofructokinase. ATP-dependent 6-phosphofructokinase (Trypanosoma brucei brucei), O15648. T. brucei PFK, ADP-Glo luminescence. Potency, µM (doses to about 57.5 µM), inactives show at the highest dose activity, negative = inhibition, actives largely listed as inhibitors. 330,000 compounds, 0.17% hits. AID 485367, 2010;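 also: potency is read from the fitted curve at half-maximal effect; 0% = uninhibited 1x PFK enzyme wells and -100% = no-enzyme wells; nearly all actives have a fitted effect of over 60% in size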
#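 In TEA buffer at pH 8.0 with 5 mM MgCl2, enzyme (1.25 nM) converted F6P (0.5 mM) and ATP (0.1 mM) for 45 min at room temperature. ADP product was read by luciferase luminescence.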
# TCR act: Activators of T cell receptors: qHTS campaign. Potency, µM (top dose mostly 9.22 µM), for inactives: top-dose activation of IL-2 secretion, hits mostly activators. primary human leukocytes, anti-CD3, IL-2 HTRF, 48 h. 330,000 tested, under 10 active; also: % of control where 0% means no effect
#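 Primary human leukocytes incubated 48 hr with anti-CD3 beads plus compound, without co-stimulation. Secreted IL-2 measured by HTRF (europium cryptate/d2 anti-IL-2 pair, 320 nm excitation, 665 nm emission).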
# Integrin act MD: qHTS for Activators of Integrin-Mediated Alleviation for Muscular Dystrophy; alpha7betagal myoblasts, beta-gal FDG fluorescence, 48 h; Potency, µM (series often up to 38.3 µM), inactives show top-dose activation, hits mostly activators; 350,000 compounds, 0.064% hits;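 also: potency is read from the fitted curve at half-maximal effect; 100% = response of the positive control SU9516; nearly all actives have a fitted effect of over 60% in size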
#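 alpha7betagal+/- myoblasts (passage 13, 250/well) treated 48 h at 37C with compounds at 1:260 dilution of DMSO stock. Lysed, then beta-galactosidase activity read as FDG fluorescence (ex 480/em 540) after 30 min, with pre-read for autofluorescence.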
# Mito fusion act: qHTS Assay for Small Molecule Inhibitors of Mitochondrial Division or Activators of Mitochondrial Fusion | S. cerevisiae fusion-defective mutant growth rescue, CellTiterGlo 48 h | Potency, µM (series often up to 46.1 µM), for the others: at the highest dose growth rescue (activation), usual class: activators | 320,000 compounds, 0.23% hits;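 also: potency is read from the fitted curve at half-maximal effect; % of control where 0% means no effect; nearly all actives have a fitted effect of over 45% in size; temperature-sensitive fusion mutants such as fzo1-1 at 37 °C on non-fermentable ethanol glycerol medium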
#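 Growth-rescue viability read-out: after 48 h at the non-permissive 37C in glycerol/ethanol YPEG, yeast mitochondrial fusion mutants are measured by CellTiterGlo luminescence; compounds (23 nl pinned per well) restoring growth score as division inhibitors or fusion activators.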
# BCR signal inh: qHTS Assay to Find Inhibitors of Chronic Active B-Cell Receptor Signaling; ABC-DLBCL IkBa-CBG/CBR reporter, luminescence ratio, 4 h; Potency, µM (top dose mostly 46.1 µM), for inactives: at the highest dose ratio change, negative = lower green/red ratio, hits mostly inhibitors; 340,000 compounds, 0.05% hits; active = well fitted inhibition curve with a large enough effect in the signal ratio, with a control signal flat, not every such curve was filed as active; inconclusive = small, poorly fitted or top-dose-only effect, or effect the other way, or a change in a side signal; the % refers to the signal ratio;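 also: potency is read from the fitted curve at half-maximal effect; plate controls were basal doxycycline-induced cells for no effect and cells given 10 µM MG132 for full effect; MG132 reads +100%, hits lower the ratio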
#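 Cell line TMD8 (human ABC DLBCL), stably expressing tet-inducible CBG68-IkBa fusion and CBR; IMDM/0.5% FBS; cpd up to 46 uM; dox induction, 4 h, 37C/5% CO2; dual luminescence; green/red ratio; MG132 control.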
# A-T KAP1 phos: qHTS Assay for Identifying a Potential Treatment of Ataxia-Telangiectasia. Potency, µM (highest dose often 57.5 µM), for inactives: at the top dose activation, actives largely listed as activators. AID 485349, 2010. […] A-T fibroblasts, KAP-1 phosphorylation AlphaLISA; neocarzinostatin DNA damage 30 min before lysis. 320,000 compounds, 0.19% hits; also: potency is read from the fitted curve at half-maximal effect; % of control where 0% means no effect; nearly all actives have a fitted effect of over 45% in size
#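 hTERT-immortalized A-T patient fibroblasts ([…]), 500 cells/well in OPTI-MEM, 1% FBS, got compounds for 60 min, then NCS for 30 min at 37C. Lysates were then assayed for phospho-KAP-1 by AlphaLISA (anti-pKAP1 donor, anti-KAP1 acceptor beads), 6 hr at 25C.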
# PTAP TSG101 blk: qHTS Assay for Iinhibitors of HIV-1 Budding by Blocking the Interaction of PTAP/TSG101; Fluorescence polarization, FITC-PTAP peptide / Tsg101 binding; Potency, µM (highest dose often 115 µM), for the others: at the top dose activity change, negative = inhibition, most hits filed as inhibitors; 340,000 tested, under 10 active; AID 493005, 2010; active = well fitted inhibition curve with a large enough effect in the main read-out, with a control signal flat, not every such curve was filed as active; inconclusive = small, poorly fitted or top-dose-only effect, or effect the other way, or a change in a side signal; inactive = no such curve, though single readings can be large or run the other way; also: potency is read from the fitted curve at half-maximal effect; % of control where 0% means no effect
#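 Fluorescence polarization binding of Tsg101 binding domain (10 uM final) to FITC-labeled PTAP peptide (50 nM final) in HEPES pH 7.5 buffer with NaCl, Tween 20, EDTA, TCEP. Compounds added before peptide; binding 20 min at RT.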
# Eya2 inh: qHTS Assay for Inhibitors of the Phosphatase Activity of Eya2; Potency, µM (highest dose often 76.9 µM), inactives show at the highest dose activity, negative = inhibition, usual class: inhibitors; Protein phosphatase EYA2 (Homo sapiens), O00167; AID 488837, 2010; 330,000 compounds, 0.006% hits; recombinant Eya2, OMFP fluorescence dephosphorylation (OMFP is methylfluorescein phosphate); also: potency is read from the fitted curve at half-maximal effect; % is scaled to controls: 0 for no effect and ±100 for the full control effect
# Target sequence (O00167 whole entry, looked up): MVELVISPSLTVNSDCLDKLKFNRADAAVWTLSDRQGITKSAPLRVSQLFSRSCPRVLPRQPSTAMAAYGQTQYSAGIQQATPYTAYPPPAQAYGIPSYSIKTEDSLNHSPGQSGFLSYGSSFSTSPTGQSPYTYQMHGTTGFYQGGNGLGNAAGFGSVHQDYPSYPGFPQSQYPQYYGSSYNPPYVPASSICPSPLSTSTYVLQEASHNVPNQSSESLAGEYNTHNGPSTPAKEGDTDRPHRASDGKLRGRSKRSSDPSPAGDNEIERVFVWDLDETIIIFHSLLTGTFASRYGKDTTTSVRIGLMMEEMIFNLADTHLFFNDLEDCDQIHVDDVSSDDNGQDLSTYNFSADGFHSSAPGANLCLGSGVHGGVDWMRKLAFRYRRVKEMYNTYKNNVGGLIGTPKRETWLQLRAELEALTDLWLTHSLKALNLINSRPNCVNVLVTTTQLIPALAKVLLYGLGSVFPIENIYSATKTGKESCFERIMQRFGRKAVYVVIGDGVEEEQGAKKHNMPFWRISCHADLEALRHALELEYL
#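 Eya2 (0.2 uM) preincubated 10 min at ambient with compound, then OMFP substrate added at 50 uM; 10 min reaction in 50 mM HEPES pH 7.5, 50 mM NaCl, 5 uM MgCl2, 0.05% BSA, 1 mM DTT. Fluorescence read at Ex 485/Em 525 nm.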
# ELG1 repair inh: qHTS screen for small molecules that inhibit ELG1-dependent DNA repair in human embryonic kidney (HEK293T) cells expressing luciferase-tagged ELG1 | 330,000 compounds, 2.3% hits | HEK293T ELG1-luciferase reporter, luminescence, 16 h; DNA damage induced by 5-fluorouridine | AID 504467, 2011 | Potency, µM (highest dose often 46.1 µM), without a hit: top-dose activity change, negative = inhibition, most hits filed as inhibitors; also: potency is read from the fitted curve at half-maximal effect; % is scaled to controls: 0 for no effect and ±100 for the full control effect; nearly all actives have a fitted effect of over 55% in size
#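 5-Fluorouridine DNA damage + compound/DMSO, 2,000 cells/well, 16 h, 37 °C/5% CO2. ONE-Glo, 30 min RT, luminescence. Readout = decrease in reporter signal.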
# An asterisk follows results filed as active; ? = inconclusive; . = not tested or not shown; & = joins results of further samples; [ ] = dose if it differs, or a comment. Unless noted, calls follow the shape of the dose curve; as a rule, active = well fitted curve in the direction sought with a large enough effect; inconclusive = small, poorly fitted or top-dose-only effect, or another doubt; inactive = no such curve, though single readings can be large; an effect the other way counts as inactive or inconclusive. This is a subset, so the mix of outcomes need not match the whole.
compound	TCR act	PTAP TSG101 blk	Integrin act MD	ASM inhibitor	A-T KAP1 phos	ELG1 repair inh	Eya2 inh	Tb PFK block	Mito fusion act	BCR signal inh
CCN(CC)c1ccc(C=Nc2ccc(C#N)cc2)c(O)c1	8%	-1%	4%	6%	1%	-1%	1%	-16%	-2%	2%
OC(CCN1CCCCC1)(c1ccccc1)C1C[C@@H]2C=C[C@H]1C2 (stereo not given in full)	-13%	2%	.	5%	2%	-1%	13%	0%	-10%	?
CCc1ccc(NC(=O)Cn2ncc3c4ccccc4n(C)c3c2=O)cc1	-2%	1%	-10%	-3%	2%	3%	15%	3%	5%	3%
CCC(C)(C)n1nnnc1C(c1cccs1)N1CCc2ccccc21 (stereo not given)	.	0%	-29%	-3%	-1%	?	-5%	3%	16%	5%
Cc1nnc(SCC(=O)NNC(=O)COc2ccc(Br)cc2)n1C	5%	-4%	21%	0%	-1%	0%	8%	-12%	-1%	1%
O=S(=O)(c1cccc(F)c1)N1CCN(Cc2cc3c(cc2Br)OCCO3)CC1	0%	0%	-15%	4%	7%	?	10%	1%	12%	-1%
CCOc1ccccc1NS(=O)(=O)c1ccc2[nH]c(=O)[nH]c2c1	2%	-2%	17%	14%	1%	24%	0%	-1%	0%	-3%
Cn1c2c(c(=O)n(C)c1=O)C(c1ccccc1Cl)C(C#N)=C(N)O2 (stereo not given)	2%	-2%	-32%[inhibitor]	15%	-18%	-1%	-24%	6%	-1%	9%

# Quoted at random: 2 compounds from above
compound	TCR act	PTAP TSG101 blk	Integrin act MD	ASM inhibitor	A-T KAP1 phos	ELG1 repair inh	Eya2 inh	Tb PFK block	Mito fusion act	BCR signal inh
CCC(C)(C)n1nnnc1C(c1cccs1)N1CCc2ccccc21 (stereo not given)	.	0%	-29%	-3%	-1%	?	-5%	3%	16%	5%
CCOc1ccccc1NS(=O)(=O)c1ccc2[nH]c(=O)[nH]c2c1	2%	-2%	17%	14%	1%	24%	0%	-1%	0%	-3%

# Remaining list, next part
compound	TCR act	PTAP TSG101 blk	Integrin act MD	ASM inhibitor	A-T KAP1 phos	ELG1 repair inh	Eya2 inh	Tb PFK block	Mito fusion act	BCR signal inh
O=c1oc2cc(O)ccc2c2oc3cc(O)ccc3c12	-8%	0%	.	.	-4%	?	-6%	-5%	6%	?
Cc1ccccc1OCc1nc(-c2ccc(NC(=O)c3ccc4c(c3)OCO4)cc2)no1	2%	-2%	1%	-1%	-3%	?	0%	-4%	-3%	?
CC(=O)Nc1cc2c(cc1NC(=O)c1cnccn1)OCCO2	-1%	-3%	23%	3%	-6%	0%	18%	5%	-1%	-4%
CCOC(=O)c1c(NC(NC(C)=O)C(Cl)(Cl)Cl)sc2c1CCCC2 (stereo not given)	-1%[46.1 µM]	-4%	1%	-10%	-7%	?	-9%	3%	?	?
CCn1c(Cc2ccccc2)nnc1SCC(=O)Nc1ccc(C)cc1	1%[46.1 µM]	-2%	23%	0%	2%	-15%	7%	-16%	-1%	1%
CCN(CC)CCNC(=O)c1ccc(NC(C)=O)cc1	0%&3%	-5%&-13%	.	6%&-2%	14%&-54%	5%&22%	7%&0%&9%	-1%&0%	?	2%&6%
CC(OC(=O)CCNS(=O)(=O)c1cccs1)C(=O)Nc1ccc(S(N)(=O)=O)cc1 (stereo not given)	3%	0%	-3%	0%	-6%	13%	-28%	-4%	2%	-5%
O=C(NC1CCCCCCC1)c1ccc2c(c1)OCO2	-6%	-4%	11%	3%	1%	?	13%	-8%	11%	?
CCCCc1nc(Cl)c(CO)n1Cc1ccc(-c2ccccc2-c2nn[nH]n2)cc1	-2%	-11%	.	1%	2%	27%	-8%	4%	1%	26%
CCOC(=O)c1cc(S(=O)(=O)NCC2CCN(Cc3cccc(C)c3)CC2)cn1C	2%	-3%	12%	4%	-6%	9%	-3%	-5%	17%	-1%
O=C1c2ccccc2C(=O)N1C(CO)C(O)c1ccc([N+](=O)[O-])cc1 (stereo not given)	3%	0%	-19%	4%	-2%	2%	1%	-8%	2%	-1%
CC(C)(C)NCC(O)c1ccc(O)c(CO)c1 (stereo not given)	.	.	.	.	.	.	9%&3%	.	15%&-4%	.
COC(=O)c1cc(S(=O)(=O)NCc2ccc(F)cc2)cn1C	-7%	-1%	3%	3%	2%	3%	11%	-5%	-1%	-6%
COC(=O)[C@H](C(C)C)N(Cc1ccccc1)S(=O)(=O)CCN1CCN(c2ccccc2)CC1	0%[46.1 µM]	-5%	14%	-10%	5%	?	-8%	-2%	.	-2%
COc1ccc(N2C3=[N+](CC2(C)O)c2ccccc2CC3)cc1 (stereo not given)	5%	-8%	1%	-2%	0%	8%	-3%	3%	-3%	?
COc1c(Cl)cc(C(=O)Nc2ccccc2C(=O)O)cc1Cl	-7%	-7%	-3%	25%	-4%	?	4%	3%	4%	?
COCCc1ccc(OCC(O)CNC(C)C)cc1 (stereo not given)	-11%&-7%&-3%	2%&-2%&-5%	.	2%&0%&4%	0%&-2%&8%	1%&14%&-1%	6%&1%&-25%&-6%	-5%&0%&-1%	-9%&-2%&6%	1%&5%&2%
CC(C)C(C(=O)OCC(=O)c1ccc2c(c1)NC(=O)CO2)N1C(=O)c2ccccc2C1=O (stereo not given)	1%	-1%	-13%	-7%	1%	?	-21%	10%	0%	?
CCN(CCCNC(=O)C1CCN(S(=O)(=O)CC)CC1)c1cccc(C)c1	-5%	-6%	7%	1%	6%	20%	-9%	0%	0%	-8%
O=C(OCC(O)CO)c1ccccc1Nc1ccnc2cc(Cl)ccc12 (stereo not given)	1%	1%	.	2%	1%	?	11%	4%	7%	?
O=C(NC1CCCCC1)C(c1ccncc1)N(Cc1ccc2c(c1)OCO2)C(=O)C(F)(F)F (stereo not given)	-8%[46.1 µM]	-6%	-4%	-2%	2%	10%	-3%	-1%	-5%	?
Cc1cccc(NC2SC(=O)N(CC(=O)O)C2=O)c1 (stereo not given)	-1%[46.1 µM]	-11%	8%	1%	-1%	7%	-12%	0%	-2%	15%
Cc1ccccc1CN1CCNC(=O)C1CC(=O)NCCC1=CCCCC1 (stereo not given)	4%	-2%	-1%	8%	0%	4%	-2%	3%	1%	-1%
CC(C)c1nnc(NC(=O)C2CCN(C(=O)Nc3ccc(Cl)cc3)CC2)s1	-1%	-11%	27%	-4%	6%	-6%	8%	0%	8%	7%

# Of the compounds above, these contain an NH in an aromatic ring:
compound	TCR act	PTAP TSG101 blk	Integrin act MD	ASM inhibitor	A-T KAP1 phos	ELG1 repair inh	Eya2 inh	Tb PFK block	Mito fusion act	BCR signal inh
CCOc1ccccc1NS(=O)(=O)c1ccc2[nH]c(=O)[nH]c2c1	2%	-2%	17%	14%	1%	24%	0%	-1%	0%	-3%
CCCCc1nc(Cl)c(CO)n1Cc1ccc(-c2ccccc2-c2nn[nH]n2)cc1	-2%	-11%	.	1%	2%	27%	-8%	4%	1%	26%

# Later entries:
compound	TCR act	PTAP TSG101 blk	Integrin act MD	ASM inhibitor	A-T KAP1 phos	ELG1 repair inh	Eya2 inh	Tb PFK block	Mito fusion act	BCR signal inh
CC1=C(OC(=O)C(C)(C)C)C(C)(C)C(c2ccccc2)OC1=O (stereo not given)	-14%[46.1 µM]	0%	-9%	-2%	-2%	-10%	-5%	-16%	8%	-2%
CC(=O)c1ccc2c(c1)N(CCCN1CCC(CCO)CC1)c1ccccc1S2	3%	-1%	.	-23%	-3%	-2%	6%	-7%	-6%	?
O=C1CCC(=O)O1	7%	6%	.	-1%	-11%	27%	13%	0%	-14%	-1%
CCn1c(CNc2ccc(C)cc2)nnc1SCC(N)=O	9%[46.1 µM]	-9%	22%	4%	-1%	5%	-9%	1%	-6%	-17%
C=CCOC(=O)CCCCCCCC	5%	1%	.	-1%	17%	-23%	-1%	0%	-8%	-29%
